Source: PubChem BioAssay
PAFAH2 FP inh: inhibitors of human PAFAH2; Q99487; recombinant PAFAH2, FP-rhodamine activity probe, fluorescence polarization; inhibition, % at 3.39 µM; actives 0.99% (n = 340,000); AID 492956;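 active means inhibition above the mean over all tested compounds plus 3 SD, cut at about 30% in these data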;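 further: inhibitors block probe labeling of enzyme so polarization drops; 0% = enzyme with DMSO and 100% = wells lacking PAFAH2 protein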
PAD4 FP inh: inhibitors of human PAD4; Q9UM07; AID 485272; inhibition, % at 6.36 µM; actives 0.41% (n = 330,000); recombinant PAD4, RCA probe fluorescence polarization;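 active means percent inhibition above a cutoff equal to the mean of all tested compounds plus 3 SD, cut at about 15% in these data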;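 further: 0% = PAD4 with RCA probe and DMSO and 100% = probe without PAD4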
Target sequence (Q9UM07 whole entry, looked up): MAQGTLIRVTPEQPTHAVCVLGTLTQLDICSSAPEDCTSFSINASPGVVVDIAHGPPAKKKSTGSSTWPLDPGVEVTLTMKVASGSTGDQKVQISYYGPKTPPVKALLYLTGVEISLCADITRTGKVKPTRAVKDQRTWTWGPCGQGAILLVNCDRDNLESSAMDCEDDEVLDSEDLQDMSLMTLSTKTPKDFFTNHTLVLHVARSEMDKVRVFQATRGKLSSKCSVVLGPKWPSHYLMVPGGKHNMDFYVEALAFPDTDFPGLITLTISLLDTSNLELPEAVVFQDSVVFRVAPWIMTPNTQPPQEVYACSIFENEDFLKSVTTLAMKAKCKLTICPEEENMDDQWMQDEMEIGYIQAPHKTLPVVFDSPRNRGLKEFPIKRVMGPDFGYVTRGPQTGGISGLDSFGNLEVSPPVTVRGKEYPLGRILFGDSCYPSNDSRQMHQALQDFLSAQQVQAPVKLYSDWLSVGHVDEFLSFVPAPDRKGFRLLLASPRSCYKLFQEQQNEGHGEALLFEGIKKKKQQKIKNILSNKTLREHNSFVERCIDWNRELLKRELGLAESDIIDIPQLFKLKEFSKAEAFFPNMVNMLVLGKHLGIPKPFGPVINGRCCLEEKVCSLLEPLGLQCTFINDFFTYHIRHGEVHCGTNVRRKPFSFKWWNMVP
GSTO1 inh: blocks human GSTO1 in RBBP9 counter-screen; P78417; recombinant GSTO1, activity-based probe fluorescence polarization; inhibition, % at 5.96 µM; actives 1.1% (n = 300,000); AID 1974;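 active means inhibition above the campaign mean inhibition plus 3 SD, cut at about 35% in these data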;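 further: 0% = GSTO1-1 with DMSO and 100% = wells lacking GSTO1-1 enzyme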
PAFAH1B3 inh: blocks human PAF acetylhydrolase 1B catalytic subunit 3; recombinant PAFAH1B3, FP-rhodamine probe, fluorescence polarization; inhibition, % at 3.39 µM; actives 0.28% (n = 340,000);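 active means inhibition above the screen-wide average of all tested compounds plus 3 SD, cut at about 25% in these data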;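 further: 0% = enzyme with DMSO only and 100% = wells lacking PAFAH1B3 protein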
LYPLA2 inh: LYPLA2 (human) inhibition in PME1 counter-screen | O95372 | recombinant LYPLA2, FP-Rh probe fluorescence polarization | inhibition, % at 5.9 µM | actives 0.38% (n = 320,000);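 active means inhibition above the screen-wide mean plus 3 SD, limit set per campaign, cut at about 26% in these data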;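 further: 0% = LYPLA2 with DMSO and 100% = wells lacking LYPLA2 enzyme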
LYPLA1 counter: LYPLA1 (human) inhibition in PME1 counter-screen; inhibition, % at 5.9 µM; actives 0.16% (n = 320,000); recombinant LYPLA1, FP-Rh probe fluorescence polarization;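 active means inhibition above the mean of all tested compounds plus 3 SD, set per campaign, cut at about 14% in these data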;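 further: inhibitors block serine hydrolase probe labeling of LYPLA1 so polarization falls; 0% = enzyme with DMSO and 100% = wells lacking LYPLA1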
PME-1 inh: blocks human protein phosphatase methylesterase 1. Q9Y570. recombinant PME-1, FP-Rh probe fluorescence polarization. inhibition, % at 5.9 µM. actives 0.53% (n = 320,000);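 active means inhibition above the campaign mean of all compounds plus 3 SD, cut at about 26% in these data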;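 further: competitive labeling of PME-1 active site by serine hydrolase directed probe; 0% = PME-1 with DMSO and 100% = wells lacking PME-1 enzyme; inhibitors block probe labeling so polarization falls and inhibition rises; many of its hits are not listed in these tables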
pPAFAH FP inh: pPAFAH (human) enzyme inhibition. Q13093. recombinant pPAFAH, FP-rhodamine probe fluorescence polarization. inhibition, % at 3.39 µM. actives 1.5% (n = 330,000). AID 463082;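 active means inhibition above the mean inhibition across the screen plus 3 SD, cut at about 25% in these data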;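 further: inhibitors block binding of the rhodamine activity-based probe so polarization drops; 0% = enzyme with DMSO and 100% = wells lacking pPAFAH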
Starred values were filed as active, the others as inactive; x = no result given. A portion of the library; rates above refer to the full screens.

1	CCN1C(=O)[C@H]2[C@H]3CN=C(SCc4ccc(Cl)cc4)N3[C@@](Cc3ccccc3)(C(=O)OC)[C@H]2C1=O
2	O=C(NC1CCCC1)C(c1ccc(F)cc1)N(C(=O)c1csnn1)c1ccccc1 (centres undefined)
3	CCCCNC(=O)Cn1cnc2ccc(S(=O)(=O)N3CCC(C)CC3)cc2c1=O
4	Cc1c(C(=O)OCC(=O)N2CCCC2=O)oc2ccccc12
5	O=C(c1ccc(Cl)cc1)C(CN1CCCC1)c1ccccc1 (centres undefined)
6	Cc1ccc(S(=O)(=O)Nc2ccc(NC(=O)c3c(F)c(F)c(F)c(F)c3F)cc2)cc1
7	COc1ccccc1N(CC(=O)NCCSc1ccc(Cl)cc1)S(C)(=O)=O
8	O=C(O)C1CC(=O)N(c2ccc(OCc3ccc(Br)cc3)cc2)C1 (centres undefined)
9	N#Cc1ccc(NC(=O)C2CC(c3ccc(F)cc3)=NO2)cc1 (centres undefined)
10	S=c1[nH]nc(-c2ccc(Cl)cc2Cl)n1Cc1ccccc1
compound no. | 1 | 2 | 3 | 4 | 5 | 6 | 7 | 8 | 9 | 10
PAFAH2 FP inh | -1.7 | 3.0 | 0.8 | 15.1 | -5.5 | -6.9 | 6.0 | 1.2 | -1.5 | -1.8
PAD4 FP inh | -4.9 | 0.2 | -0.9 | -2.2 | -0.8 | -1.4 | -6.5 | -1.4 | -5.5 | -0.5
GSTO1 inh | x | 5.3 | -2.7 | 13.3 | -5.9 | -25.6 | -4.2 | -2.2 | 2.2 | -5.2
PAFAH1B3 inh | 12.1 | 8.5 | 5.5 | 2.2 | 10.3 | 4.7 | 3.2 | 5.2 | 6.6 | 4.4
LYPLA2 inh | x | 5.6 | -2.1 | 5.2 | -9.0 | -34.3 | 6.4 | 6.4 | 1.9 | 3.9
LYPLA1 counter | x | 0.1 | -2.7 | 3.3 | -6.0 | -11.6 | 3.6 | 1.0 | 3.0 | -1.0
PME-1 inh | x | -1.3 | -1.0 | -5.0 | -6.6 | -14.4 | -0.5 | -3.2 | -0.3 | 2.7
pPAFAH FP inh | 3.1 | 2.3 | -3.0 | 4.3 | -2.5 | 20.4 | 2.2 | 9.6 | 3.2 | 4.3

A draw from above in order of length of the SMILES, rising.
5	O=C(c1ccc(Cl)cc1)C(CN1CCCC1)c1ccccc1 (centres undefined)
10	S=c1[nH]nc(-c2ccc(Cl)cc2Cl)n1Cc1ccccc1
3	CCCCNC(=O)Cn1cnc2ccc(S(=O)(=O)N3CCC(C)CC3)cc2c1=O
compound no. | 5 | 10 | 3
PAFAH2 FP inh | -5.5 | -1.8 | 0.8
PAD4 FP inh | -0.8 | -0.5 | -0.9
GSTO1 inh | -5.9 | -5.2 | -2.7
PAFAH1B3 inh | 10.3 | 4.4 | 5.5
LYPLA2 inh | -9.0 | 3.9 | -2.1
LYPLA1 counter | -6.0 | -1.0 | -2.7
PME-1 inh | -6.6 | 2.7 | -1.0
pPAFAH FP inh | -2.5 | 4.3 | -3.0

More results follow.
11	S=c1[nH]nc(C23CC4CC(CC(C4)C2)C3)n1Cc1ccco1
12	COc1ccc([C@@H]2CC=C(C(=O)O)[C@H](c3ccc(Br)cc3)N2S(=O)(=O)c2ccccc2C)cc1
13	CC(C)(C)OC(=O)NCC(=O)Oc1cc2oc(=O)cc(-c3ccccc3)c2cc1Cl
14	CC(NC(=O)c1ccccc1)c1ccc(Br)cc1 (centres undefined)
15	O=C(O)c1cccc(S(=O)(=O)Nc2cccc(S(=O)(=O)Nc3ccc(Br)cc3)c2)c1
16	Cc1ccc(/C=N\n2c(-c3ccccc3)n[nH]c2=S)s1
17	C=CCNCCOCCSc1ccc(Cl)cc1
18	CC(C)(C)C(C(=O)n1cccc1C#N)c1ccccc1 (centres undefined)
19	O=C(CCNS(=O)(=O)c1ccc(Br)cc1)Nc1cccc(F)c1
20	O=C(CCNC(=O)c1ccc(Br)cc1)NCCCc1ccccc1
compound no. | 11 | 12 | 13 | 14 | 15 | 16 | 17 | 18 | 19 | 20
PAFAH2 FP inh | -1.4 | 9.6 | 5.8 | 5.5 | 3.2 | -0.5 | -5.5 | 0.4 | -6.5 | 10.2
PAD4 FP inh | 1.6 | -2.2 | 0.5 | 3.5 | x | 2.3 | -2.6 | 2.6 | -4.0 | 1.9
GSTO1 inh | -0.5 | x | 1.7 | -1.8 | x | -1.9 | -1.4 | x | 1.1 | 8.2
PAFAH1B3 inh | 9.2 | -4.1 | 0.1 | 5.3 | -0.8 | 3.6 | -1.5 | 3.3 | 8.2 | 6.8
LYPLA2 inh | 4.3 | x | -2.4 | -0.1 | x | 6.6 | 1.2 | 0.4 | 2.0 | 4.1
LYPLA1 counter | 2.5 | x | 4.0 | -1.1 | x | 3.2 | 1.1 | -1.0 | -1.6 | -0.3
PME-1 inh | -0.9 | x | 6.4 | -2.1 | x | -0.6 | 5.3 | 3.9 | 4.0 | 3.7
pPAFAH FP inh | 0.7 | 8.0 | -2.9 | 1.0 | x | 13.8 | -0.5 | -0.8 | 2.1 | 6.9

21	O=C(CSc1ccc(Br)cc1)Nc1cccc(S(=O)(=O)N2CCOCC2)c1
22	CN1CCN(S(=O)(=O)c2cccc(C(=O)Nc3ccccc3N3CCCC3)c2)CC1
23	CC1=CCC[C@@H]2[C@@](C)(CC/C(C)=C/C(=O)O)[C@H](C)CC[C@@]12C
24	CC(C)(C)c1ccc(C(=O)NCCC(=O)NCc2cccs2)cc1
25	O=C(CCSc1ccc(Cl)cc1)N1CCN(c2ncccn2)CC1
26	Cc1ccc(/C=N/n2c(-c3ccncc3)n[nH]c2=S)s1
27	O=C(NCc1cccnc1)C1CC(c2ccc(F)cc2)=NO1 (centres undefined)
28	O=C(O)c1n[nH]c2c1CC(C1CCCCC1)CC2 (centres undefined)
29	CC1CCN(S(=O)(=O)c2ccc3c(c2)NC(=O)CS3)CC1
30	Cc1ccc(CNC(=O)C2(C)Oc3ccccc3NC2=O)cc1 (centres undefined)
compound no. | 21 | 22 | 23 | 24 | 25 | 26 | 27 | 28 | 29 | 30
PAFAH2 FP inh | 3.6 | -2.4 | 5.1 | 1.8 | 9.1 | -2.9 | 2.9 | -0.1 | 5.3 | 1.3
PAD4 FP inh | x | 0.0 | -2.2 | -5.8 | 1.5 | 2.9 | -2.9 | -2.1 | -2.6 | 5.0
GSTO1 inh | x | 5.7 | 19.4 | 4.2 | 1.6 | 0.1 | -1.4 | -2.8 | 1.6 | 7.8
PAFAH1B3 inh | -2.7 | 4.3 | 3.6 | -2.2 | 9.8 | 7.6 | 3.8 | 2.5 | 12.5 | 8.3
LYPLA2 inh | x | 1.4 | 0.9 | 4.3 | 7.9 | -0.4 | -7.6 | 5.9 | -0.5 | 4.0
LYPLA1 counter | x | 3.8 | -5.0 | 0.6 | -0.1 | 2.1 | -3.3 | 3.8 | -1.1 | -0.9
PME-1 inh | x | 0.2 | 1.8 | 1.8 | 5.3 | -1.9 | -0.4 | 3.0 | 4.3 | 3.1
pPAFAH FP inh | x | -1.4 | 14.8 | 1.7 | 7.8 | 18.9 | -2.9 | 2.3 | 3.2 | 3.2

Gathered by group: the compounds so far with four or more nitrogen atoms (6)
2	O=C(NC1CCCC1)C(c1ccc(F)cc1)N(C(=O)c1csnn1)c1ccccc1 (centres undefined)
3	CCCCNC(=O)Cn1cnc2ccc(S(=O)(=O)N3CCC(C)CC3)cc2c1=O
16	Cc1ccc(/C=N\n2c(-c3ccccc3)n[nH]c2=S)s1
22	CN1CCN(S(=O)(=O)c2cccc(C(=O)Nc3ccccc3N3CCCC3)c2)CC1
25	O=C(CCSc1ccc(Cl)cc1)N1CCN(c2ncccn2)CC1
26	Cc1ccc(/C=N/n2c(-c3ccncc3)n[nH]c2=S)s1
compound no. | 2 | 3 | 16 | 22 | 25 | 26
PAFAH2 FP inh | 3.0 | 0.8 | -0.5 | -2.4 | 9.1 | -2.9
PAD4 FP inh | 0.2 | -0.9 | 2.3 | 0.0 | 1.5 | 2.9
GSTO1 inh | 5.3 | -2.7 | -1.9 | 5.7 | 1.6 | 0.1
PAFAH1B3 inh | 8.5 | 5.5 | 3.6 | 4.3 | 9.8 | 7.6
LYPLA2 inh | 5.6 | -2.1 | 6.6 | 1.4 | 7.9 | -0.4
LYPLA1 counter | 0.1 | -2.7 | 3.2 | 3.8 | -0.1 | 2.1
PME-1 inh | -1.3 | -1.0 | -0.6 | 0.2 | 5.3 | -1.9
pPAFAH FP inh | 2.3 | -3.0 | 13.8 | -1.4 | 7.8 | 18.9
